SARS PLpro yeast = blocks SARS-CoV papain-like protease in a yeast assay. S. cerevisiae expressing SARS-CoV PLpro, growth rescue; control for the full effect not named in the record. Potency, µM (top dose mostly 32.9 µM), for the others: at the highest dose activity, positive = growth rescue. 330,000 tested, 0.19% active. AID 485353; active means well fitted rising curve with a large enough effect; inconclusive means small, poorly fitted or top-dose-only effect; inactive means no such curve, though single readings can be large or run the other way; note: 0% is about no effect; nearly all actives have a fitted effect of over 55% in size; growth read by luminescence after 48 h
Cruzain Triton = cruzain (T. cruzi) inhibition with detergent; P25779; purified cruzain, Z-FR-AMC fluorescence, 0.01% Triton; Potency, µM, without a hit: max response, negative = inhibition, usual class: inhibitors; 200,000 tested, 0.43% active; AID 1478;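 note: plate controls were neutral wells for no effect and buffer without enzyme for full effect; nearly all actives have a fitted effect of over 40% in size; top concentration of the series not given in the record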
Target sequence (P25779 123-467 limits assumed): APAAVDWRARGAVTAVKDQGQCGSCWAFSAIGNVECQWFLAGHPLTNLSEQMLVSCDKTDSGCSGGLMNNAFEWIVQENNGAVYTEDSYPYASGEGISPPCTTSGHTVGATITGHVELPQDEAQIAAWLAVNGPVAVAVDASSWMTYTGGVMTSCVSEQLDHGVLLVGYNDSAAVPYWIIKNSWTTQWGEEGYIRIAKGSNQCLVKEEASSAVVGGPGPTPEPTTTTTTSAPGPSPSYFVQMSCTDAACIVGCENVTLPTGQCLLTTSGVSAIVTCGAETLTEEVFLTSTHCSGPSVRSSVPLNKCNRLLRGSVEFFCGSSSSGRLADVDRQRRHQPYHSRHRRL
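Steps: dispense cruzain (1.5 nM final) in acetate buffer pH 5.5 with DTT and 0.01% Triton X-100; pin-transfer compounds; incubate 15 min RT; add Z-FR-AMC (2 uM final); read fluorescence every 30 s, using the 60 s intensity change.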
NS1 function inh = inhibitors of influenza NS1 protein function | AID 2326 | Potency, µM (series often up to 46.1 µM), without a hit: at the highest dose activity, positive = more growth | S. cerevisiae slowed by influenza A NS1, growth recovery by OD600 | 270,000 tested, 0.4% active; active means well fitted rising curve with a large enough effect; inconclusive means small, poorly fitted or top-dose-only effect; inactive means no such curve, though single readings can be large or run the other way; note: nearly all actives have a fitted effect of over 50% in size
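In this qHTS, NS1 from influenza A is expressed in budding yeast, where it slows growth. Cells are switched from glucose to 2% galactose medium (pH 6.0, -URA), treated with compound, and growth recovery is read at OD600.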
LASV entry inh = blocks Lassa virus binding to or entry into cells | Potency, µM (series often up to 37.9 µM), for the others: at the highest dose activity change, negative = inhibition, usual class: inhibitors | 300,000 tested, 1.2% active | Lassa virus pseudotype entry inhibition, cell reporter; control for the full effect not named in the record; active means well fitted inhibition curve with a large enough effect; inconclusive means small, poorly fitted or top-dose-only effect, or effect the other way; inactive means flat fitted curve, though single readings scatter; tested in HEK293 cells; note: % is set by controls: 0 for no effect and ±100 for the full control effect; nearly all actives have a fitted effect of over 50% in size; luciferase read-out
Cruzain inh noDet = blocks cruzain activity in detergent-free assay; P25779; purified cruzain, Z-FR-AMC fluorescence, no detergent; Potency, µM, for the others: max response, negative = inhibition, most hits filed as inhibitors; 200,000 tested, 2.3% active;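 note: plate controls were enzyme without inhibitor for no effect and buffer without enzyme for full effect; nearly all actives have a fitted effect of over 40% in size; top concentration of the series not given in the record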
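Purified cruzain at 1.5 nM, pre-incubated 15 min with compound at room temperature in 100 mM sodium acetate pH 5.5, 5 mM DTT, 0.00005% Triton X-100. Reaction started with 2 uM Z-FR-AMC; AMC fluorescence increase over 60 s gives rate.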
Marburg entry inh = inhibitors of Marburg virus binding or cell entry. Marburg virus pseudotyped entry inhibition, cell reporter; control for the full effect not named in the record; about a third of the inactives were read at about 46 µM. Potency, µM (series often up to 37.8 µM), for the others: at the top dose activity change, negative = inhibition, most hits filed as inhibitors. 300,000 tested, 1.8% active; active = well fitted inhibition curve with a large enough effect; inconclusive = small, poorly fitted or top-dose-only effect, or effect the other way; inactive = flat fitted curve, though single readings scatter; tested in HEK293 cells; about a fifth of its hits are not listed in these tables; note: % is set by controls: 0 for no effect and ±100 for the full control effect; luciferase read-out
2A StopGo = lowers the luciferase signal of an FMDV 2A StopGo reporter | human cells with a luciferase reporter of 2A StopGo recoding; control for the full effect not named in the record | Potency, µM (top dose mostly 57.9 µM), for inactives: at the highest dose signal change, negative = less light | 410,000 tested, 1.2% active; active = well fitted falling curve with a large enough effect; inconclusive = small, poorly fitted or top-dose-only effect; inactive = no such curve, though single readings can be large or run the other way; tested in HEK293T cells; note: % is set by controls: 0 for no effect and ±100 for the full control effect; nearly all actives have a fitted effect of over 45% in size; luciferase light after 4 h
RE007 growth inh = less growth of the S. pombe RE007 Vpr strain. S. pombe RE007 Vpr strain, BacTiter-Glo ATP luminescence, 24 h; control for the full effect not named in the record. Potency, µM (top dose mostly 92.2 µM), for inactives: top-dose activity change, negative = less growth. 360,000 tested, 0.21% active. AID 651644; active = well fitted falling curve with a large enough effect; inconclusive = small, poorly fitted or top-dose-only effect; inactive = no such curve, though single readings can be large or run the other way;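 note: % is set by controls: 0 for no effect and ±100 for the full control effect; nearly all actives have a fitted effect of over 50% in size; the assay follows cell death caused by Vpr and the record does not say whether a fall means rescue or toxicity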
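Fission yeast RE007 carrying one integrated HIV-1 vpr copy, seeded at OD 0.01 in PMG+AL medium with 23 nL pinned compound. Grown 24 h at 30 degrees; viability read by BacTiter-Glo luminescence after 5 min.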
Numbers without * were called inactive; ? = inconclusive; · = not tested or not shown; & = joins results of further samples; [ ] = another dose, or the depositor's remark. Unless noted, calls come from the whole dose curve; as a rule, active = well fitted curve in the direction sought with a large enough effect; inconclusive = small, poorly fitted or top-dose-only effect, or another doubt; inactive = no such curve, though single readings can be large; an effect the other way counts as inactive or inconclusive. Potency is the fitted concentration of half-maximal effect.

SMILES	SARS PLpro yeast	Cruzain Triton	NS1 function inh	LASV entry inh	Cruzain inh noDet	Marburg entry inh	2A StopGo	RE007 growth inh
CCCOc1ccc2c(=O)c(-c3cc(C(=O)OC)oc3C)c(C)oc2c1	-8.4%	-4.1%	-35.8%	?	-6.2%	-12.1%	?	3.7%
O=C(Nc1cccnc1)C1(c2ccc(Cl)cc2)CCCC1	2.6%	-1.8%	-3.2%	-7.6%	6.7%	?	?	-3.4%
Cc1c(C(=O)N(C)C)sc2c1c(=O)n(-c1ccc(Cl)c(Cl)c1)c(=O)n2CC(=O)Nc1cccc(C(F)(F)F)c1	·	1.9%	·	-8.6%[46.1 µM]	-12.6%	·	-19.7%	·
O=C(NCc1ccccn1)c1cc(Cl)ccc1OCc1ccccc1	-9.2%	·	-65.1%	-27.0%[46.1 µM]	·	-15.3%[46.1 µM]	-3.1%	16.7%
O=C(c1n[nH]c(=O)c2ccccc12)N1CCOCC1	7.2%	2.9%	-2.3%	-13.4%	14.8%	6.5%	-15.8%	-0.7%
Cc1ccc(-n2nc(C(=O)N3CCN(c4ccccc4F)CC3)c(=O)n(C)c2=O)cc1	·	-3.5%	·	-22.2%[46.1 µM]	-9.3%	·	-5.2%	·
COc1ccc(C(=O)/C(C#N)=N/Nc2ccccc2[N+](=O)[O-])cc1	18.5%	-8.2%	3.7%	?	7.7%	?	-16.8%	-18.7%
CCOC(=O)c1c(-c2ccc(C)cc2)csc1NC(=O)c1cc(=O)c2cc(C)cc(C)c2o1	·	2.4%	·	18.7%[46.1 µM]	4.9%	0.8%[46.1 µM]	-13.0%	·
O=C1N(c2ccccc2)c2ccccc2C1(O)C(F)(F)F (stereo not drawn)	-1.2%	·	3.1%	23.8%	·	6.5%	-5.2%	-10.5%
COc1ccc(NC(=O)Cc2c(O)c3ccccc3[nH]c2=O)cc1	-0.1%	2.1%	-1.9%	1.7%	6.7%	2.2%	10.1%	-0.2%
CCN(CC)c1ccc2cc(-c3nc(-c4ccccc4F)no3)c(=O)oc2c1	·	2.0%	·	24.0%[46.1 µM]	-6.4%	·	39.2%[activator]	·
COc1ccc(NS(=O)(=O)c2cccc(-c3n[nH]c(=S)n3Cc3ccccc3)c2)cc1	9.3%	·	·	·	·	-2.1%	11.6%	-9.6%
Cc1ccc(CNC(=O)CCS(=O)(=O)c2ccc(Br)s2)cc1	16.7%	-1.3%	0.5%	5.3%	-2.6%	28.1%	-15.3%	-11.8%
CCCCCCc1nc(C(N)=O)c2[nH]c(=O)n(-c3ccc(OCC)cc3)c2n1	-2.1%	·	10.7%	·	·	·	-16.3%	-11.6%
CCCN(CCC)c1nc(-c2ccccn2)nc2ccccc12	-4.6%	·	-82.7%	?	·	?	?	-14.7%
Cc1c2cc[n+](CCN3CCCCC3)cc2c(C)c2c1[nH]c1ccc(O)cc12	·	-3.6%	-30.5%	11.5%	-12.1%	?	-22.3%	0.0%
N#Cc1cc2c(nc1SCC(N)=O)CCCCC2	-2.8%	0.0%	10.4%	-24.6%	8.9%	-6.1%	33.6%[activator]	-18.1%
COc1ccc(CCNC(=O)CC2C(=O)NCCN2CC(C)(C)C)cc1 (stereo not drawn)	-1.4%	·	1.1%	14.7%[46.1 µM]	·	-5.9%[46.1 µM]	-5.2%	3.4%
CCC(C)c1ccc(OCC(=O)Nc2ccc3c(c2)C(=O)NC3=O)cc1 (stereo not drawn)	-5.9%	·	5.1%	-1.0%	·	?	?	43.2%
COc1cc(NC(=O)CSc2nc(-c3ccccc3)no2)cc(OC)c1	·	-7.4%	·	-8.3%[46.1 µM]	-2.7%	·	-2.3%	·
N#CC(Cc1cccc(CC(C#N)(c2ccccc2)c2ccccc2)c1)(c1ccccc1)c1ccccc1	0.0%	·	?	·	·	·	?	10.0%
CSc1ccccc1NC(=O)CN(C)C(=O)Cc1c(F)cccc1Cl	27.1%	·	16.8%	1.6%	·	-4.0%[46.1 µM]	14.8%	22.9%
COc1ccc(NC(=O)COC(=O)c2ccc(S(=O)(=O)N(C)c3ccccc3OC)cc2)cc1OC	2.6%	·	2.6%	-1.1%	·	1.8%[46.1 µM]	3.0%	-3.3%
O=C(Cc1ccc(Cl)cc1)N/N=C/c1cccs1	0.3%	·	1.0%	·	·	·	1.4%	7.8%
CC(=O)N1c2ccccc2C(C)=CC1(C)C	-6.2%	·	2.7%	·	·	·	-12.1%	-2.0%

Compound profiles, from the list above. Order of screens: SARS PLpro yeast | Cruzain Triton | NS1 function inh | LASV entry inh | Cruzain inh noDet | Marburg entry inh | 2A StopGo | RE007 growth inh
`N#Cc1cc2c(nc1SCC(N)=O)CCCCC2` is listed with -2.8% | 0.0% | 10.4% | -24.6% | 8.9% | -6.1% | 33.6%[activator] | -18.1%
`COc1ccc(NS(=O)(=O)c2cccc(-c3n[nH]c(=S)n3Cc3ccccc3)c2)cc1` is listed with 9.3% | · | · | · | · | -2.1% | 11.6% | -9.6%
`COc1ccc(CCNC(=O)CC2C(=O)NCCN2CC(C)(C)C)cc1` (stereo not drawn) is listed with -1.4% | · | 1.1% | 14.7%[46.1 µM] | · | -5.9%[46.1 µM] | -5.2% | 3.4%

(listing goes on)
SMILES	SARS PLpro yeast	Cruzain Triton	NS1 function inh	LASV entry inh	Cruzain inh noDet	Marburg entry inh	2A StopGo	RE007 growth inh
O=C(Nc1cnc2ccccc2c1)c1ccncc1	-9.2%	4.0%	-15.1%	·	-2.9%	·	7.4%	17.4%
CC1CCN(c2ccc(C(=O)NCc3ccco3)cc2[N+](=O)[O-])CC1	-56.9%	-7.0%	-44.8%	6.51µM*	-6.1%	?	2.8%	3.8%
COc1ccc(CNC(=O)COC(=O)c2cccnc2Nc2cccc(C(F)(F)F)c2)cc1	-8.7%	2.4%	-0.5%	-0.4%	?	-13.6%[46.1 µM]	-16.9%	9.3%
O=C(c1ccco1)N1CCN(C(=O)C2CCN(S(=O)(=O)c3cccc4nsnc34)CC2)CC1	·	·	5.0%	14.9%	·	-1.2%	-19.1%	1.9%
CC(OC(=O)c1cccc(N(C)C)c1)C(=O)N1CCc2ccccc2C1 (stereo not drawn)	2.6%	·	·	?	·	27.1%	-13.4%	-1.3%
CCCCOc1ccc(Cn2c(=O)oc3ccccc32)cc1	-3.4%	-1.4%	1.9%	3.4%&3.8%[46.1 µM]	-2.4%	?	-5.6%&-15.3%	16.5%
CCOc1ccc(-n2c(SCC(=O)Nc3cc(C)on3)nc3c(c2=O)SCC3)cc1	0.4%	·	16.0%	15.1%[46.1 µM]	·	0.2%[46.1 µM]	1.9%	-4.7%
COC(=O)c1sccc1NC(=O)c1c(C)cc(=O)oc1C	1.9%	-2.0%	0.8%	-7.7%	-6.9%	-1.7%	-20.1%	-1.1%
CCOCCCNC(=O)c1ccc(CS(=O)(=O)Cc2ccccc2F)o1	2.3%	3.3%	-2.2%	18.1%[14.3 µM]	7.5%	-2.0%	-21.0%	3.9%
COc1ccc(CCNC(=O)CSc2nnc(-c3ccccc3)o2)cc1OC	-1.4%	2.5%	-11.6%	8.6%	7.4%	5.8%	-14.7%	4.4%
COc1ccccc1N1CCN(C(=O)c2c(C)noc2C)CC1	0.1%	·	-1.2%	21.5%[46.1 µM]	·	27.3%[46.1 µM]	-5.4%	8.0%
CN(C)/C=C1/C(=O)N(c2ccc([N+](=O)[O-])cc2)N=C1c1ccccc1	6.5%	-8.1%	0.8%	?	-1.7%	14.7%	·	·
Nc1ncnc(N)c1N=Nc1ccccc1	-10.3%	·	-4.7%	?	·	5.01µM*	-22.1%	30.3%
O=C(c1ccc2c(c1)N(Cc1ccccc1F)C(=O)c1ccccc1S2(=O)=O)N1CCc2ccccc21	·	-0.5%	·	-10.5%[46.1 µM]	2.7%	-18.6%[46.1 µM]	18.1%	·
CCCc1cc(C(=O)N2CCC(n3nccc3NC(=O)c3ccc(OC)cc3)CC2)no1	-8.1%	·	-1.5%	·	·	·	0.1%	3.6%
CC1CCN(c2ccc(NC(=O)c3cccnc3)cc2)CC1	-2.6%	-1.3%	?	4.0%	-7.8%	2.8%	12.5%	4.5%
CCOc1cc(CO)cc(Br)c1OCC(=O)O	·	·	·	0.6%	·	24.3%	4.2%	4.1%
O=C(COc1ccc(Cl)cc1)Nc1ccc2c(c1)C(=O)NC2=O	-0.3%	·	6.6%	23.5%[46.1 µM]	·	4.2%[46.1 µM]	10.2%	-4.8%
CC1CCN(C(c2cc3cc4c(cc3[nH]c2=O)OCO4)c2nnnn2CC2CCCO2)CC1 (stereo not drawn)	-0.2%	-15.7%	-7.5%	-9.0%	-29.9%	-21.0%	8.0%	-16.8%
CC1CCCN(C2=C(NS(=O)(=O)c3ccc(Cl)cc3)C(=O)c3ccccc3C2=O)C1 (stereo not drawn)	-8.2%	-5.9%	6.1%	?	-9.6%	?	-12.6%	-10.6%
COc1ccccc1NC(=O)Cn1nnc(C(=O)NCc2ccc3c(c2)OCO3)c1N	0.1%	11.0%	-3.1%	-2.5%[46.1 µM]	?	15.3%&15.3%[46.1 µM]	-15.2%&-9.1%	4.9%
Cc1ccc(-n2ncc(C(=O)NCc3ccccn3)c2C2CCN(C(=O)OC(C)(C)C)CC2)cc1C	·	-7.6%	·	?	?	·	-9.3%	·
c1csc(C2CCCN2c2nc3nonc3nc2NC2CC2)n1 (stereo not drawn)	1.0%	·	2.6%	-7.5%	·	3.0%[46.1 µM]	-5.2%	1.9%
CC(=O)Nc1c(C)nn(-c2ccccc2)c1N1CCC(C(=O)Nc2cc(Cl)ccc2C)CC1	·	0.7%	·	-10.7%[46.1 µM]	-5.4%	·	-1.4%	·

Gathered by group, the compounds so far with bromine
SMILES	SARS PLpro yeast	Cruzain Triton	NS1 function inh	LASV entry inh	Cruzain inh noDet	Marburg entry inh	2A StopGo	RE007 growth inh
Cc1ccc(CNC(=O)CCS(=O)(=O)c2ccc(Br)s2)cc1	16.7%	-1.3%	0.5%	5.3%	-2.6%	28.1%	-15.3%	-11.8%
CCOc1cc(CO)cc(Br)c1OCC(=O)O	·	·	·	0.6%	·	24.3%	4.2%	4.1%
